Screening results (PubChem)
KCNQ2 block = KCNQ2 potassium channel inhibitors, primary screen, cell-based, CHO-K1, FluxOR thallium flux, B-score (AID 2156); 20 min; hits give low values; only compounds with negative scores are shown here; some inactives read as strong as hits; B-score at 10 µM; actives 1.1% (n = 310,000);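 active = fluorescence ratio B-score at most minus 3 library SDs, with starting brightness B-score within 2 library SDs, cut at about -5.5 in these data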
Target sequence (O88943 whole entry, looked up): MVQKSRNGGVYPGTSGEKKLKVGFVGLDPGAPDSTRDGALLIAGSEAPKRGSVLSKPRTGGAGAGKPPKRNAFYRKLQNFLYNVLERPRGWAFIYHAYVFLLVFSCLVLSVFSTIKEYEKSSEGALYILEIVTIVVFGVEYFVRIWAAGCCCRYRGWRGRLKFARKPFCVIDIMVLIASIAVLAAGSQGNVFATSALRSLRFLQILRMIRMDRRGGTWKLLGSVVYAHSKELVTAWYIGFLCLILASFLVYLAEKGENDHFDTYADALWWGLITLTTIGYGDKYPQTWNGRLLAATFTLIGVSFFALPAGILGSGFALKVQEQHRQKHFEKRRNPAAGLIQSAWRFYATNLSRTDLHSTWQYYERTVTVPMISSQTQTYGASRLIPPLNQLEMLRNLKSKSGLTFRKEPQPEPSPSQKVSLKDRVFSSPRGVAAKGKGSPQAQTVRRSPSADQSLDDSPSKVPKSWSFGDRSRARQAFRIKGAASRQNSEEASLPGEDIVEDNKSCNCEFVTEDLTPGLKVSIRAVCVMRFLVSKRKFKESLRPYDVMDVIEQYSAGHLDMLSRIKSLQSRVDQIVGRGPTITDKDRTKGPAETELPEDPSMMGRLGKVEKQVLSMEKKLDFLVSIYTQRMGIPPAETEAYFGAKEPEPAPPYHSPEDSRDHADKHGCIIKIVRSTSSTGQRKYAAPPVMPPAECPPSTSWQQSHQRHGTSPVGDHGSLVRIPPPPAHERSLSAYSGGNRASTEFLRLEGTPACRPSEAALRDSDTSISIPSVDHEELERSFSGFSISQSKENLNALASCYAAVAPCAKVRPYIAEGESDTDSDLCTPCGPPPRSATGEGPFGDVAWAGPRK
KCNQ2 block baseline = also measured in KCNQ2 block; calls as there; B-score; measured here: initial fluorescence intensity artifact check;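 brightness before thallium and not channel activity; 0 = typical well and far values either way flag optical interference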
Starred values were filed as active, the others as inactive; i = inactive.

Start of the data: the first 6 compounds, ahead of the listing:
Fields – KCNQ2 block, KCNQ2 block baseline
Cc1ccc(C(C)C)cc1S(=O)(=O)Nc1ccncc1
 : i, -1.24
CN(C)S(=O)(=O)c1cccc(NC(=O)CNCC2CCCCC2)c1
 : i, -0.31
COc1ccccc1/C=C/C=N/n1c(-c2ccncc2)n[nH]c1=S
 : i, -0.3
COc1ccc(CCNC(=O)CNC(=O)c2ccccc2Br)cc1OC
 : i, 1.73
COc1ccccc1OCCN1C(=O)S/C(=C\c2ccco2)C1=O
 : i, -0.51
COc1ccc(C(CCNCc2ccccc2F)c2ccc(F)cc2)cc1 (stereo not given)
 : i, 1.63

Main list (from the top)
Fields – KCNQ2 block, KCNQ2 block baseline
Cc1ccc(C(C)C)cc1S(=O)(=O)Nc1ccncc1
 : i, -1.24
CN(C)S(=O)(=O)c1cccc(NC(=O)CNCC2CCCCC2)c1
 : i, -0.31
COc1ccccc1/C=C/C=N/n1c(-c2ccncc2)n[nH]c1=S
 : i, -0.3
COc1ccc(CCNC(=O)CNC(=O)c2ccccc2Br)cc1OC
 : i, 1.73
COc1ccccc1OCCN1C(=O)S/C(=C\c2ccco2)C1=O
 : i, -0.51
COc1ccc(C(CCNCc2ccccc2F)c2ccc(F)cc2)cc1 (stereo not given)
 : i, 1.63
COc1ccc(C(=O)N2N=C(c3cccs3)CC2c2ccccc2O)cc1 (stereo not given)
 : i, -0.21
COc1cccc(COc2ccc3c(C)c(Cc4ccccc4)c(=O)oc3c2)c1
 : i, -0.37
C(=N\N1CCN(Cc2cccc3ccccc23)CC1)/c1cccs1
 : i, 0.19
CCN(CC(=O)NCc1ccc(F)cc1)C(=O)CN1CCN(c2ccccc2OC)CC1
 : i, 0.57
CN(Cc1nc2ccccc2n1C)C(=O)c1ccco1
 : i, 0.86
CCc1ccc(C2C(C(C)=O)=C(C(=O)OC)Nc3nnnn32)cc1 (stereo not given)
 : i, -0.62
Cc1ccc(-c2nnc(N3CCN(c4ccccn4)CC3)c3ccccc23)cc1
 : i, -0.67
CCOc1ccc(-c2cc(C(=O)N3CCN(c4ccccn4)CC3)c3ccccc3n2)cc1
 : i, -0.35
CN1CC(c2ccccc2)C2(SC(=S)N(Cc3ccco3)C2=O)C12C(=O)Nc1ccccc12 (stereo not given)
 : i, 2.44
O=C(NCCc1nnc2ccc(SCC(=O)N3CCOCC3)nn12)c1ccccc1
 : i, 2.59
CCOC(=O)C1CCCN(C(=S)Nc2ccc(OC)cc2)C1 (stereo not given)
 : i, 0.61
CC(=O)Nc1ccc(NC(=O)CS(=O)(=O)c2cn(CC(=O)N3CCCC3)c3ccccc23)cc1
 : i, 0.1
CCOc1ccccc1CN1CCN(C/C=C/c2ccc(OC)cc2)CC1CCO (stereo not given)
 : i, 1.54
COc1ncccc1C(=O)NC1CCCc2c1cnn2-c1cc(C)cc(C)c1 (stereo not given)
 : i, -1.06
O=C(NC(=S)N1CCN(c2ccccn2)CC1)c1ccco1
 : i, 1.05
C=C(C)COc1ccc2c3c(c(=O)oc2c1OCC(=C)C)CCC3
 : i, 0.29
COc1cccc(CNc2ccc(F)c(Cl)c2)c1
 : i, -0.86
O=C(COC(=O)CCNS(=O)(=O)c1ccccc1)NC(=O)c1ccccc1
 : i, 1.29
C=CCn1c(=N)n(CC(=O)OCC)c2ccccc21
 : i, 0.24
COc1cc(C2C3=C(CC(C)(C)CC3=O)Nc3ccccc3N2C(C)=O)cc(OC)c1OC (stereo not given)
 : i, 0.82
O=C(c1cccc(S(=O)(=O)N2CCOCC2)c1)N1CCN(S(=O)(=O)c2cccs2)CC1
 : i, -0.14
CCn1c(COc2ccc3c(c2)OCO3)nnc1SCC(=O)c1ccc(Cl)cc1
 : i, -0.11
CC1(C)OC(=O)C(=CNC(Cc2c[nH]c3ccccc23)C(=O)O)C(=O)O1 (stereo not given)
 : i, 0.64
COc1ccc(Cl)cc1N(CC(=O)N1CCC(C)CC1)S(C)(=O)=O
 : i, -0.67
CCOC(=O)CN(c1ccccc1)S(=O)(=O)c1ccc(F)cc1
 : i, 2.45
COCCN=C1Sc2nc3cc(C)c(C)cc3cc2CN1Cc1cccs1
 : i, -0.05
Cc1ccc(S(=O)(=O)NC(=O)Nc2ccc(N(C)C)cc2)cc1
 : i, 0.66
COc1ccc(C(=O)Nn2c(SCc3cccc([N+](=O)[O-])c3)nc3ccccc3c2=O)cc1
 : i, -0.63
Clc1ccc(CSc2ccc(-c3ccco3)nn2)cc1
 : i, -0.02
CCn1c(=O)cc(SCC(=O)Nc2ccc(Cl)cc2)c2ccccc21
 : i, -2.67
CCN1C(=O)N[C@@H](c2ccco2)C(C(C)=O)=C1C
 : i, -0.02
CCN(CC)S(=O)(=O)c1cccc(C(=O)N[C@H](C(=O)OCC(=O)NC(=O)NC)C(C)C)c1
 : i, -2.9
COc1ccc(S(=O)(=O)N2CCN(C(=O)c3cnc(C)cn3)CC2)cc1
 : i, -0.81
Cc1ccc(Sc2ncnc3onc(C)c23)cc1
 : i, 1
Fc1ccc(-c2nc(-c3cnccn3)no2)c(Cl)c1
 : i, -1.36
O=C(Nc1ccn(Cc2ccccc2F)n1)c1ccc(COc2cccc(Br)c2)cc1
 : i, -0.01
O=C(O)c1cc(S(=O)(=O)Nc2ccccc2C(=O)O)ccc1O
 : i, -2.06
CCOc1ccc(-c2cnc3n2CCC3)cc1
 : i, 0.13
Cc1onc(-c2c(Cl)cccc2Cl)c1C(=O)NC1CCCCC1
 : i, 0.87
COc1cc(NS(=O)(=O)c2ccc(NC(=O)NC3CCCCC3)cc2)nc(OC)n1
 : i, -0.65
O=C(O)C1CCCN1C1=NS(=O)(=O)c2ccccc21 (stereo not given)
 : i, -0.07
O=C1NC[C@H](c2ccccc2)N(CCC23CC4CC(CC(C4)C2)C3)C1=O
 : i, 0.03
CCOc1ccc(/C(O)=C2/C(=O)C(=O)N(CCCN3CCOCC3)C2c2ccc(C)cc2)cc1C (stereo not given)
 : i, 0.87
O=C(Oc1cccc2cccnc12)c1ccc2c(c1)OCCO2
 : i, -1.09

New compounds follow:
Fields – KCNQ2 block, KCNQ2 block baseline
O=C(Nc1ccc(O)cc1)c1ccccc1OCc1ccccc1
 : i, -1.11
O=C(Nn1cc(C(=O)Nc2ccccc2F)c2ccccc2c1=O)c1cnccn1
 : i, -2.28
COc1ccc(/C=C/C(=O)N(C)C2(C)CCS(=O)(=O)C2)cc1 (stereo not given)
 : i, 0.97
Cc1ccc2[nH]c3c(Cl)ncnc3c2c1
 : i, -0.04
COc1ccc(N2C(=O)CCC2(C#N)c2ccc(Br)cc2)cc1 (stereo not given)
 : i, -1.19
N#C/C(=C\c1cccc(Br)c1)C(=O)N1CCCCC1
 : -8.53*, -0.67*
CCCn1c(SCCN2CCOCC2)nc2c1c(=O)n(C)c(=O)n2C
 : i, 0.37
O=C1CC(c2cccc(Cl)c2)Cc2nc(N3CCOCC3)ncc21 (stereo not given)
 : i, -0.48
FC(F)Oc1ccc(NC(=S)NNc2ccnc3cc(Cl)ccc23)cc1
 : i, -2.55
COc1ccc([C@@H]2OC2(C(N)=O)C(N)=O)cc1
 : i, -0.16
O=C(c1cc(=O)c2cc(Cl)ccc2o1)N1CCN(Cc2ccccc2)CC1
 : i, -1.18
COc1ccc(C(CCN2CCN(c3ccccc3)CC2)c2c(OC)cc(OC)c3c(-c4ccccc4)cc(=O)oc23)cc1 (stereo not given)
 : i, -0.23
CCOc1cc(NC(=S)NCCCN2CCOCC2)c(OCC)cc1NC(=O)c1cccs1
 : i, 2.01
Cc1ccc(NC(=S)N(CCN(C)C)Cc2cc3cc(C)ccc3[nH]c2=O)cc1
 : i, -0.92
O=C1CC(c2ccccc2)CN1C(=O)c1cccc([N+](=O)[O-])c1 (stereo not given)
 : i, 1.77
COc1ccc(OCC(=O)N2CCc3ccccc3C2)cc1
 : i, 2.65
OCCOCCN1CCN(C(=S)Nc2ccccc2)CC1
 : i, -1.33
COc1ccc(CN2CC(C(=O)NCc3ccc4c(c3)OCO4)CC2=O)cc1 (stereo not given)
 : i, -0.07
CCCCc1nnc2c(N(C)S(=O)(=O)c3ccc(C)cc3)nc3ccccc3n12
 : i, -0.06
O=C(CN(c1ccc(F)cc1)S(=O)(=O)c1ccc2c(c1)OCCO2)Nc1ccccc1
 : i, -0.97
O=C(NNC(=O)c1ccc(O)cc1O)c1ccc(Cl)cc1
 : i, 0.07
COc1ccc(C2CC(C)(c3ccc(OC)cc3OC)Nc3ccccc3N2)c(OC)c1 (stereo not given)
 : -6.4*, 0.46*
COc1cc(CNc2ccccc2SC)cc(OC)c1OC
 : i, 0.84
CN(Cc1cc(=O)[nH]c2ccccc12)C(=O)c1ccccc1
 : i, 0.09
COc1ccc(NC(=O)c2ccc(C)cc2)c[n+]1[O-]
 : i, 1.59
CCOC(=O)C(C(=O)OCC)C(=O)c1cc(OC)c(OC)c(OC)c1
 : i, 1.27
CN(CCC#N)C(=O)COC(=O)c1ccc(Cl)c(S(N)(=O)=O)c1
 : i, -0.01
CCC(=O)Nc1nc(C)c(-c2csc(Nc3cccc(O)c3)n2)s1
 : i, -0.5
COCCN(C(=O)C1CCCC1)c1c(N)n(Cc2ccccc2)c(=O)[nH]c1=O
 : i, 0.32
COc1ccc(C(=O)N2CCc3cc(OC)c(OC)cc3C2c2ccc(OC)c(OC)c2)cc1 (stereo not given)
 : i, -0.13
O=C1S/C(=C\c2ccc(N3CCOCC3)o2)C(=O)N1c1ccccc1
 : i, 9.48
O=[N+]([O-])c1ccc(NCc2ccncc2)cc1
 : i, -1.73
CCCc1nc2ccccc2c(C(=O)OC(C)C(=O)NCc2ccc3c(c2)OCO3)c1CC (stereo not given)
 : i, -1.9
O=C(CSC1=NCCS1)Nc1ccc(S(=O)(=O)NC2CCCCC2)cc1
 : i, -1.2
Cc1ccc(C(=O)N2CCN(S(=O)(=O)N3CCCCC3)CC2)cc1
 : i, 0.21
COc1ccc(NC(=O)/C(C#N)=C/c2cc(C)n(-c3ccc(N4CCOCC4)c([N+](=O)[O-])c3)c2C)cc1
 : i, -0.94
Cc1cc(=O)oc2cc(NC(=O)CCOc3ccccc3)ccc12
 : i, 0.3
COc1ccc(Oc2c(-c3ccc(O)cc3O)n[nH]c2C)cc1
 : i, -0.17
O=C(NCC1COc2ccccc2O1)c1ccc(Cl)cc1 (stereo not given)
 : i, -0.26
Cc1cccc(OC(=O)c2cccnc2)c1
 : i, -0.08
Cc1ccc(N(Cc2ccccc2)C(=O)c2cccc(F)c2)cc1
 : i, -0.3
COc1ccc2c(Cl)c(-c3nnco3)sc2c1
 : i, 1.31
Cc1ccc([C@@H]2[C@@H]3C(=O)N(C)C(=O)[C@@H]3[C@]3(C)C(=O)N(Cc4ccc(-c5ccccc5)cc4)CC(=O)N23)o1
 : i, 0.55
O=C(O)CCn1cc(C(=O)O)c(-c2ccccc2)n1
 : i, -1.16
Cc1cc(C)n(C(=O)COc2ccccc2[N+](=O)[O-])n1
 : i, 1.96
CCN1C(=O)N[C@@H](CCc2ccccc2)[C@H](C(=O)OC)[C@H]1C
 : i, 0.61
O=C1N[C@H](C(=O)O)CS1
 : i, 0.87
CS(=O)(=O)c1nc(S(=O)(=O)c2ccc(Cl)cc2)c(N2CCC3(CC2)OCCO3)s1
 : i, -0.5
Cc1ccc(C)c(NC(=O)CS(=O)(=O)c2cccc3nsnc23)c1
 : i, 0.86
COc1ccc(Cl)cc1NC(=O)CNc1ccccc1N1CCOCC1
 : i, 1.15

One compound at a time (already shown). Values in the order: KCNQ2 block	KCNQ2 block baseline
Cc1ccc(C)c(NC(=O)CS(=O)(=O)c2cccc3nsnc23)c1 is entered as i	0.86
O=C1N[C@H](C(=O)O)CS1 is entered as i	0.87
O=C(O)CCn1cc(C(=O)O)c(-c2ccccc2)n1 is entered as i	-1.16
COc1ccc(Cl)cc1NC(=O)CNc1ccccc1N1CCOCC1 is entered as i	1.15
COc1ccc2c(Cl)c(-c3nnco3)sc2c1 is entered as i	1.31

Carrying on.
Fields – KCNQ2 block, KCNQ2 block baseline
CCOC(=O)Cc1nnc(NC(=O)c2ccccc2OCC)s1
 : i, -0.65
CN(C)/C=C/C(=O)c1ccc2noc(-c3ccc(F)cc3)c2c1
 : i, 0.74
CC(=O)N(C(C)=O)N1C(=O)c2cccc3c(N4CCOCC4)ccc(c23)C1=O
 : i, 2.01
COC(=O)C1=C(N)Oc2cc(C)n(C)c(=O)c2C1c1ccc(Cl)c(Cl)c1 (stereo not given)
 : i, -0.46
COc1cccc(CN(C)C(=O)Cc2c[nH]c3ccccc23)c1
 : i, -1.94
COCc1c(Br)c(C)nc2sc3c(=O)[nH]nnc3c12
 : i, 1.57
c1ccc2c(NCC3CCCO3)nc(N3CCOCC3)nc2c1 (stereo not given)
 : i, 2.11
O=S(=O)(c1ccc(Cl)c2ccccc12)N1CCCC1
 : i, -2.33
CC1CN(C(=O)COC(=O)c2ccc(Cl)c(S(=O)(=O)N3CCCCC3)c2)CC(C)O1 (stereo not given)
 : i, 2.06
O=C(c1ccccc1)[C@H]1[C@H](c2ccccc2)[C@@]2(N=C(c3ccccc3)OC2=O)C2c3ccccc3C=NN21 (stereo not given in full)
 : i, -1.46
Cc1ccnc(NC(=O)c2sc3cc(Cl)ccc3c2Cl)c1
 : i, 1.15
CCOC(=O)C(=NC1CCS(=O)(=O)C1)NNc1ccc(Br)cc1 (stereo not given)
 : i, 0.29
O=C(CSc1nnc(NC2CCCCC2)s1)Nc1ccc2c(c1)C(=O)c1ccccc1C2=O
 : i, -0.55
O=c1oc2ccc3ccccc3c2cc1-c1nc2ccccc2o1
 : i, -3.15
Cc1cc(Nc2ccc(Br)cc2F)n2nc(C)nc2n1
 : i, 2.16
COc1ccc(C)cc1NC(=O)C(=O)N/N=C(\C)CC(=O)Nc1cccnc1
 : i, -0.87
CCOC(=O)c1cc2ccc(OC(=O)c3ccco3)cc2oc1=O
 : i, -1.45
O=C(OCc1cc(=O)n2c(n1)sc1ccccc12)c1ccc(O)cc1
 : i, -0.77
COC(=O)c1cc(C#N)c(N(C)Cc2ccccc2)nc1C
 : i, -2.13

This is a subset, so the mix of outcomes need not match the whole.
